PMP22 txn: PMP22 gene transcription modulation; S16 Pmp22-F2sN Schwann cells (luciferase reporters placed in the Pmp22 gene), FLuc/NLuc coincidence luminescence, 24 h; Potency, µM (series often up to 57.5 µM), inactives show at the top dose activity change, negative = inhibition, actives largely listed as inhibitors; 43,000 tested, 2% active; AID 1508649; active = clear falling dose curves in both reporters; inconclusive = both reporters move, but less clearly or upward; inactive = either reporter flat; the % is the NLuc reporter signal; also: % is scaled to controls: 0 for no effect and ±100 for the full control effect; some results filed as inactive show a strong effect at the top dose
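S16 Schwann cells carrying FLuc/NLuc coincidence reporter in the Pmp22 3' UTR treated with compound 24 h at 37C; FLuc then NLuc luminescence read sequentially by dual-luciferase reagents.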
HTT promoter inh: inhibitors of huntingtin promoter activity. HEK293 HTT promoter firefly luciferase reporter (activity 0% = vehicle and -100% = no light), 24 h. Potency, µM (series often up to 57.5 µM), without a hit: top-dose activity change, negative = inhibition, most hits filed as inhibitors. 48,000 tested, 0.93% active; active = well fitted inhibition curve with a large enough effect; inconclusive = small, poorly fitted or top-dose-only effect; inactive = no such curve, though single readings can be large or run the other way; also: nearly all actives have a fitted effect of over 50% in size
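Firefly luciferase readout (Dual-Glo, 10 min RT) after 24 h, 37 °C compound exposure (final up to 57.5 uM) of HEK293 reporter cells cultured 24 h beforehand; PTC124 at 50 uM final as control inhibitor; activity scaled vehicle 0%, zero RLU -100%.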
Active calls of the source: *; ? = inconclusive; · = not tested or not shown; & = joins results of further samples; [ ] = another dose, or the depositor's remark. Potency is read from the fitted curve at half-maximal effect.

cpd	canonical_smiles	PMP22 txn	HTT promoter inh
1	Cc1ccc(N2CCN(C(=O)c3cn(C)c4ccc(S(=O)(=O)N(C)C)cc4c3=O)CC2C)cc1 (centres undefined)	-9%	-12%
2	Cc1ccc(NC(=O)N2CC3CCCN3c3ccccc32)c(C)c1 (centres undefined)	?	-9%
3	COC(=O)c1ccccc1NC(=O)c1cc(=O)c2ccc(C)c(C)c2o1	-1%	-8%[11.5 µM]
4	CCOc1ccccc1CNC(=O)C1CCN(c2nc3ccccc3nc2C(F)(F)F)CC1	-9%	-13%
5	Cc1ccccc1S(=O)(=O)Cc1ccc(C(=O)NC2CCCCC2)o1	-34%	?
6	CCC1=Nc2cc(C(=O)NC3CCCC3)ccc2Sc2ccc(Cl)cc21	8.4µM*	?
7	CCOC(=O)c1cccc(NC(=O)NCc2cccn2Cc2ccccc2)c1	?	?
8	CCOC(=O)C1CCN(C(=O)CSc2n[nH]c(-c3ccccc3)n2)CC1	-11%	1%

Next section; the last 7 above are carried over.
cpd	canonical_smiles	PMP22 txn	HTT promoter inh
2	Cc1ccc(NC(=O)N2CC3CCCN3c3ccccc32)c(C)c1 (centres undefined)	?	-9%
3	COC(=O)c1ccccc1NC(=O)c1cc(=O)c2ccc(C)c(C)c2o1	-1%	-8%[11.5 µM]
4	CCOc1ccccc1CNC(=O)C1CCN(c2nc3ccccc3nc2C(F)(F)F)CC1	-9%	-13%
5	Cc1ccccc1S(=O)(=O)Cc1ccc(C(=O)NC2CCCCC2)o1	-34%	?
6	CCC1=Nc2cc(C(=O)NC3CCCC3)ccc2Sc2ccc(Cl)cc21	8.4µM*	?
7	CCOC(=O)c1cccc(NC(=O)NCc2cccn2Cc2ccccc2)c1	?	?
8	CCOC(=O)C1CCN(C(=O)CSc2n[nH]c(-c3ccccc3)n2)CC1	-11%	1%
9	CCc1ccccc1NC(=O)Cn1c(=O)n(-c2cccc(C)c2)c(=O)c2c1c1cc(OC)ccc1n2C	-18%	2%
10	CCCOc1ccc(CN(C(=O)Cc2coc3ccc(CC)cc23)C2CCS(=O)(=O)C2)cc1 (centres undefined)	9%	?
11	CCN(CC)CCCNC(=O)CSc1nc2nc(C)c(Cc3c(F)cccc3Cl)c(C)n2n1	5%	-9%
12	CCOC(=O)Cc1ccc(NC(=O)Nc2ccccc2OCc2cc(=O)n3ccccc3n2)cc1	-12%	7%
13	CC(C)N(C(=O)Cn1cc(S(=O)(=O)Cc2ccc(Cl)cc2)c2ccccc21)C(C)C	-19%	-18%
14	CCn1ccc2cc(S(=O)(=O)N3CCCN(C(=O)Nc4ccc(C)c(F)c4)CC3)ccc21	?	?
15	CC1=C(C(=O)O)N2C(=O)[C@@H](NC(=O)[C@H](N)c3ccccc3)[C@H]2SC1	·	15%
16	CC(C)CN1CCc2nc(N3CCN(C)CC3)ncc2C1	?	-2%
17	O=C(NCc1ccccc1Cl)c1ccc(Nc2nc3ccccc3n3nnnc23)cc1	18µM*	20%
18	Cc1cc(S(=O)(=O)NCC(c2ccco2)S(=O)(=O)c2cccs2)ccc1F (centres undefined)	9µM*	-32%
19	O=C(c1ccco1)c1cn(CCOc2ccc(Cl)cc2)c2ccccc12	-9%	7%
20	Cc1ccc(NC(=O)Nc2ccc3nc(N4CCN(C)CC4)cc(C)c3c2)cc1C	?	-13%
21	COc1ccc(CN2COc3ccc4c(C)cc(=O)oc4c3C2)cc1	-26%	-11%
22	NCC1CCC(C(=O)O)CC1 (centres undefined)	·	-12%
23	Nc1nc2ccc(OC(F)(F)F)cc2s1	·	7%&-21%
24	COc1ccccc1N1CCN(C(=O)CSc2n[nH]c(-c3ccccc3Cl)n2)CC1	-28%	-2%
25	CCN(CC)CCOC(=O)c1ccc(NC(=O)c2cc3cc(OC)ccc3oc2=O)cc1	-5%	-9%
26	Cc1ccc(NC(=O)CC2Sc3ccccc3NC2=O)c(C)c1 (centres undefined)	-17%	-26%
27	Cc1c(Cl)cccc1NC(=O)CN1C(=O)c2ccccc2Sc2ncccc21	9%	-27%
28	CCOc1ccccc1NC(=O)Cn1c(=O)n(-c2ccc(C)c(C)c2)c(=O)c2oc3ccccc3c21	-24%	5%
29	CC(=O)N1c2ccc(S(=O)(=O)NCC3CCC(C(=O)Nc4cc(C)cc(C)c4)CC3)cc2CC1C (centres undefined)	?	?
30	CCN(CC)CCOC(=O)c1ccc(NC(=O)c2cc3cccc(OC)c3oc2=O)cc1	-11%	26%
31	CCOc1ccc(/C=C/c2nc(C#N)c(NCCCN(C)C)o2)cc1	?	5%
32	COc1ccccc1N1CCN(C(=O)CCn2cnc3onc(-c4ccc(F)cc4)c3c2=O)CC1	-17%	4%
33	Cc1cccc(C)c1OCCn1c(C2CC(=O)N(Cc3ccc(F)cc3)C2)nc2ccccc21 (centres undefined)	-32%	-37%
34	CCCNC(=O)CCn1nc(-c2ccccc2)c2ccccc2c1=O	-1%	-14%[11.5 µM]
35	COc1ccc(-c2noc(-c3ccc(NC4CCCCC4)c([N+](=O)[O-])c3)n2)cc1OC	9%	-8%
36	COc1ccccc1NC(=O)C1=C(C)Nc2nc3ccccc3n2C1c1ccccc1Cl (centres undefined)	0%	-3%
37	CCOCCCNC(=O)c1ccc(-n2c(-c3ccccc3)cc3c2CCC(C)C3)cc1 (centres undefined)	18µM*	?
38	Cc1ccc(S(=O)(=O)c2cn(C)c3cc(N4CCCCCC4)c(F)cc3c2=O)cc1	?	-10%
39	CCC(C(=O)Nc1ccccc1OC)n1nc(C)c2sc3ccccc3c2c1=O (centres undefined)	?	-28%
40	O=C1Nc2c(c(=O)[nH]c(=O)n2-c2ccc(Cl)cc2)C1(NS(=O)(=O)c1ccccc1)C(F)(F)F (centres undefined)	-16%	-2%
41	Cc1ccc(CNC(=O)CN2Cc3ccccc3C2=O)cc1	-2%	6%
42	CCOCCCNC(=O)c1c(NC(=O)c2cc(=O)c3ccccc3o2)sc2c1CCC2	?	-14%
43	O=C(c1ccccc1Cl)n1nc(-c2cccnc2)nc1NCc1ccc(F)cc1	2%	-17%
44	COc1ccc(CCNC(=O)CCn2c(=O)c3cccn3c3cccnc32)cc1OC	-90%	-6%
45	COc1ccc(NC(=O)CSc2nc3ccccc3n2CC(=O)N2CCCC(C)C2)cc1 (centres undefined)	7%	-18%
46	CCn1c2ccc(F)cc2c2nnc(SCCN3CCCCC3)nc21	?	0%
47	COc1ccc(OC)c(S(=O)(=O)Nc2ccc3[nH]c(=O)[nH]c3c2)c1	4%	?
48	Cc1cccc(S(=O)(=O)c2cn(Cc3ccccc3)c3cc(N4CCCCC4C)c(F)cc3c2=O)c1 (centres undefined)	-10%	-32%
49	CCOC(=O)c1c(S(=O)(=O)N2CCCC(C(=O)N(C)Cc3ccccc3)C2)c(C)n(C)c1C (centres undefined)	-8%	-8%
50	O=C(CN1C(=O)CC(c2ccccc2)=Nc2ccccc21)Nc1ccc(Br)cc1	-26%	-24%
51	CC1=Nc2cc(C(=O)NCCc3ccc(Cl)cc3)ccc2Sc2ccc(C)cc21	9.5µM*	?
52	CN(C)CCCN1c2ccccc2Sc2ccc(C(F)(F)F)cc21	·	-17%
53	CN(C)CCc1c[nH]c2ccc(C[C@H]3COC(=O)N3)cc12	·	-7%&13%
54	CCN(CC)CCCNC(=O)c1oc2c(c1C)-c1nn(Cc3ccc(Cl)cc3)cc1CC2	?	-8%
55	CN(C)S(=O)(=O)N(CC(=O)NCCSCc1ccccc1)c1ccccc1	16%	-12%
56	COC(=O)c1cc(Cl)ccc1NC(=O)CSc1ncc(S(=O)(=O)c2ccc(Br)cc2)c(=O)[nH]1	-58%	-12%

Overlap with the part before: 2 compounds; new compounds follow.
cpd	canonical_smiles	PMP22 txn	HTT promoter inh
55	CN(C)S(=O)(=O)N(CC(=O)NCCSCc1ccccc1)c1ccccc1	16%	-12%
56	COC(=O)c1cc(Cl)ccc1NC(=O)CSc1ncc(S(=O)(=O)c2ccc(Br)cc2)c(=O)[nH]1	-58%	-12%
57	Cc1nc2c(C(=O)NCc3ccccc3)cnn2c(C)c1Cc1ccc(F)cc1	?	-3%
58	COc1ccc(CCNC(=O)CN2C(=O)COc3ccc(S(=O)(=O)N4CCCCCC4)cc32)cc1OC	?	-17%
59	COc1cc(NC(=O)Nc2nnc(N3CCCCCC3)s2)cc(OC)c1	-14%	3%
60	COC(=O)c1ccccc1NC(=O)Cn1c(=O)n(CCCC(=O)NCCc2ccc(OC)c(OC)c2)c(=O)c2ccccc21	-32%	-5%
61	Cc1ccc(-n2ncc3c(NCCCc4ccccc4)ncnc32)cc1C	-40%	2%
62	CCOc1ccc(Cn2nnc3c(=O)[nH]c(C4CCN(C(=O)c5ccccc5)CC4)nc32)cc1	4%	-25%
63	O=C(Cn1ncc2c3ccccc3n(Cc3ccccc3)c2c1=O)Nc1ccccc1C(F)(F)F	5%	0%
64	CCOC(=O)c1c(C)sc(-c2c(-c3cccc(Cl)c3)[nH]c3c2c(=O)n(C)c(=O)n3C)c1O	-12%	21%
65	CCCNC(=O)c1ccc2c(c1)ncn2-c1ccc(C)cc1C	?	-9%
66	CCOC(=O)c1cccc(NS(=O)(=O)c2cc3c(cc2C)NC(=O)CO3)c1	-19%	-20%
67	COc1cccc(NC(=O)c2oc3ccc(S(=O)(=O)N4CCC5(CC4)OCCO5)cc3c2C)c1	?	?
68	CC(C)c1ccc(C2=NC(c3ccncc3)=Nc3ccc(F)cc3N2)cc1	-16%	-11%
69	COc1ccc(NC(=O)CSc2ncc(-c3ccc(Cl)cc3)[nH]2)cc1OC	31%	?
70	O=C(Cn1c(=O)nc(-c2ccccc2)c2cc(Cl)ccc21)NCCc1ccc(Cl)cc1	-23%	-20%
71	Cc1oc(-c2ccc(Cl)cc2)nc1Cn1c(=O)cc(-c2ccccc2)c2c(C)nn(C)c21	?	-17%
72	COc1ccccc1CNC(=O)C1CCN(S(=O)(=O)c2c(C)noc2/C=C/c2cccs2)CC1	?	-20%
73	c1ccc(-c2cc(-c3ccccc3)c3c(n2)-c2ccccc2OC3)cc1	7%	-9%
74	CCOC(=O)c1ccc(CN(Cc2ccccc2)S(=O)(=O)c2ccc(C)cc2)cc1	-32%	?
75	COc1cccc(CNCCSc2nnnn2C)c1OCc1ccc(F)cc1	?	-7%
76	O=C(Cn1c(=O)n(CCc2ccccc2)c(=O)c2cccnc21)Nc1ccc(F)cc1	-33%	21%
77	CCCCSc1nnc2n(-c3cccc(C)c3)c(=O)c3c4c(sc3n12)CCCC4	?	-19%
78	Cc1ccc(NC(=O)CN(C)S(=O)(=O)c2ccc3c(c2)n(C)c(=O)c(=O)n3C)c(C)c1	-3%	-16%
79	CCn1c(=NC(=O)c2ccc(S(=O)(=O)N3CCCC3)cc2)sc2cc(Br)ccc21	-3%	-5%
80	CCOC(=O)CCC(=O)Nc1nnc2n1CCS2	22%	10%
81	CCCc1ccc(OCc2ccc(C(=O)Nc3ccccc3C(=O)OC)o2)cc1	-12%	9%
82	COCCNC(=O)CSc1nc2cc3c(cc2c(=O)n1CCCCCC(=O)NCCc1ccc(OC)c(OC)c1)OCO3	12%	-12%
83	COc1cccc(CNC(=O)CSC2=Nc3ccccc3C3=NC(C)C(=O)N23)c1OC (centres undefined)	?	-9%
84	Cc1ccccc1CNC(=O)CCCn1nc(C)c2sc3ccccc3c2c1=O	?	6%
85	COc1ccc(CNC(=O)Cn2ncc3c(=O)oc4ccc(C)cc4c32)c(OC)c1	-7%	3%
86	CCc1ccc2c(c1)NC(c1ccc(C)cc1)=NC(c1cccs1)=N2	?	11%
87	CC1=C(C(=O)N2CCN(c3cccc(C)c3C)CC2)C2(CCCCC2)OC1=O	-7%	-6%
88	CCCCCOc1ccc(C2SC(=O)NC2=O)cc1OCC (centres undefined)	·	21%
89	CCc1ccc(CN(Cc2ccco2)c2cnc(S(C)(=O)=O)nc2C(=O)Nc2cccc(C)c2)cc1	-13%	?
90	COc1ccc(-n2nnc(-c3nsc(NC(=O)c4cccs4)n3)c2C)cc1OC	-29%	30%
91	Cc1cc(C)c2oc(C(=O)Nc3ccc(S(=O)(=O)Nc4nccc(C)n4)cc3)cc(=O)c2c1	?	-21%
92	CCCSc1ncc(Cl)c(C(=O)NCc2ccc(OC)cc2)n1	?	-36%
93	COc1ccc(N(CC(=O)NC(C)c2ccccc2)S(=O)(=O)c2c(C)noc2C)cc1 (centres undefined)	5%	-8%
94	Cc1ccc(-n2ncc(C(=O)NCCN3CCc4ccccc4C3)c2C2CCN(C(=O)OC(C)(C)C)CC2)cc1	?	-28%
95	Cc1ccc(S(=O)(=O)Nc2ccc3c(c2)CCCN3C(=O)c2cccs2)cc1	?	?
96	O=C1CN(C(=O)c2ccc(S(=O)(=O)N3CCCC3)cc2)C(c2ccccc2)c2cc(F)ccc2N1 (centres undefined)	-11%	-17%
97	COc1cc(NC(=O)c2cc(-c3ccccc3O)no2)cc(OC)c1OC	?	?
98	Nc1ncc(S(=O)(=O)Nc2ccc(OC(F)(F)F)cc2)cn1	-54%	-10%
99	CC(=O)ON=C1C(c2c(O)[nH]c3cc(Br)ccc23)=Nc2ccccc21	·	19%
